mIDH1 inhibitor: blocks human mutant IDH1 R132H enzyme; O75874; IDH1-R132H enzyme, NADPH consumption, diaphorase/resazurin fluorescence; Potency, µM (top dose mostly 76.6 µM), without a hit: at the top dose activity change, negative = inhibition, most hits filed as inhibitors; hit rate 0.093% among 390,000; AID 602179; also: potency is read from the fitted curve at half-maximal effect; % is scaled to controls: 0 for no effect and ±100 for the full control effect; nearly all actives have a fitted effect of over 65% in size
Target sequence (O75874 whole entry R132H, stated change not applied): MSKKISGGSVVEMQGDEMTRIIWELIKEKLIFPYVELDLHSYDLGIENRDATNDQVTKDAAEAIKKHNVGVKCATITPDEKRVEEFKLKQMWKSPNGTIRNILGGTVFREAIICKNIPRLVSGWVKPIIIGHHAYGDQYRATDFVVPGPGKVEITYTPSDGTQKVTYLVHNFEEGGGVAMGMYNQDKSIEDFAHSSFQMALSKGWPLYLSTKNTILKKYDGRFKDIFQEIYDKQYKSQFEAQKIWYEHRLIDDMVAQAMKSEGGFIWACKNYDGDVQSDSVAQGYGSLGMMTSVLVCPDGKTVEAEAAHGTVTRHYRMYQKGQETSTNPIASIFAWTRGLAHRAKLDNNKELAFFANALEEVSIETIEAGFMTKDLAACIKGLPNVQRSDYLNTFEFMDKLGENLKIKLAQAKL
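IDH1-R132H (0.5 ug/mL) preincubated 30 min with compound, then NADPH (0.016 mM) and alpha-KG (2 mM) added; 80 min at RT, pH 7.5. Remaining NADPH coupled via diaphorase/resazurin to fluorescence (540/590 nm); concentration-response curves normalized to no-enzyme control.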
PI4K2A block: inhibitors of human PI4K2A. Q9BTU6. purified PI4K2A, ADP-Glo luminescence, 1 h; active compounds read low. activity change, negative = inhibition, % at 76.9 µM. hit rate 0.13% among 420,000. AID 1346378; in the data active = activity change below about -50%; inconclusive = mostly about -30% to -49%;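 also: -100% = wells without enzyme as full effect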
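PI4K2A activity was measured by ADP-Glo luminescence: enzyme (4 ug/mL stock) and phosphatidylinositol (1.2 mM stock) in Tris pH 7.5/MgCl2/EGTA/Triton X-100 buffer were reacted with ATP (300 microM stock) for one hour at ambient temperature.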
Vif-A3F inh: blocks the Vif interaction with APOBEC3F. HeLa A3F-eYFP + Vif (tagged APOBEC3F with the HIV-1 protein that degrades it), YFP fluorescence increase. Potency, µM (top dose mostly 46.1 µM), inactives show top-dose activity, negative = active. hit rate 0.2% among 390,000. AID 602313; also: potency is read from the fitted curve at half-maximal effect; % of control where 0% means no effect; nearly all actives have a fitted effect of over 65% in size
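Fluorescence increase (Ex 488/Em 500-530) after overnight compound treatment at 37 deg C flags inhibition of Vif-driven A3F-eYFP loss in stable HeLa A3F-eYFP/Vif cells seeded overnight beforehand.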
TrxR1 substrate: rat thioredoxin reductase 1 substrate activity. hit rate 0.01% among 390,000. Potency, µM (series often up to 114 µM), for inactives: at the top dose activity change, negative = substrate turnover. purified TrxR1 substrate turnover, NADPH consumption readout. O89049. AID 588456; also: potency is read from the fitted curve at half-maximal effect; % is scaled to controls: 0 for no effect and ±100 for the full control effect; nearly all actives have a fitted effect of over 50% in size
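Rat TrxR1, dispensed at 90 nM, was prereduced with 400 uM NADPH (final) for 5 min at ~22 deg C, then incubated with compound 15 min before 400 uM selenite. A first-read NADPH fluorescence drop versus no-compound background flagged substrates.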
LDHA block: LDHA (human) enzyme inhibition; P00338; purified LDHA, NADH/diaphorase-resazurin fluorescence; active compounds read low; activity change, % (values are at about 110 or 230 µM); hit rate 0.15% among 480,000; AID 1347041; in the data active = activity change below about -30%; inconclusive = mostly about -25% to -30%;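 also: plate controls were DMSO wells for no effect and wells without enzyme for full effect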
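Human LDH5 at 2 nM final in Tris HCl pH 7.4 with 0.06 mM NADH and 0.2 mM pyruvate, reacted 5 minutes at room temperature. Remaining NADH coupled via diaphorase/resazurin; resorufin fluorescence read at 0 and 20 minutes, normalized to enzyme-free and DMSO wells.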
GRP78 ERSR act: inducers of ER stress response in human glioma cells | U87-MG GRP78 promoter luciferase reporter, 16 h | Potency, µM, for the others: at the top dose activation, actives largely listed as activators | hit rate 0.02% among 420,000 | AID 602332; also: potency is read from the fitted curve at half-maximal effect; series mostly up to about 76 µM; % of control where 0% means no effect; nearly all actives have a fitted effect of over 35% in size
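ERSR induction read as luciferase luminescence (Bright-Glo, 10 min at room temperature) in stably transfected human U87-MG glioma cells exposed to compounds for 16 h, using GRP78 as sensor.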
Vif-A3G inh: inhibitors of Vif-APOBEC3G interaction; Q9HC16; HeLa A3G-eYFP + Vif (tagged APOBEC3G with the HIV-1 protein that degrades it), YFP fluorescence, overnight; Potency, µM (titrated, usually from 46.1 µM), inactives show at the top dose activity, negative = active, most hits filed as inhibitors; hit rate 0.076% among 410,000;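 also: potency is read from the fitted curve at half-maximal effect; % is scaled to controls: 0 for no effect and ±100 for the full control effect; nearly all actives have a fitted effect of over 60% in size; hits raise eYFP signal because A3G escapes Vif-driven loss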
Target sequence (Q9HC16 whole entry, looked up): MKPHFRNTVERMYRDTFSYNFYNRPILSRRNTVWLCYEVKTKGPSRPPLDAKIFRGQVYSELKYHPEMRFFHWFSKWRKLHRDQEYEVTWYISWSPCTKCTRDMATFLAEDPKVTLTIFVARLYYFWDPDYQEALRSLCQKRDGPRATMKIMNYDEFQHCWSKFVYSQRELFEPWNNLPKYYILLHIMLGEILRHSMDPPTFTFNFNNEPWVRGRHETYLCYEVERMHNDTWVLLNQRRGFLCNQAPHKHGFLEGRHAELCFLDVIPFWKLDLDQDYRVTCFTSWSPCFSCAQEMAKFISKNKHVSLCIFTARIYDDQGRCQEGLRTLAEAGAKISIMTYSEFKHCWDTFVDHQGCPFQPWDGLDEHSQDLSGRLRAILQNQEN
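Read-out is eYFP fluorescence (Ex 488/Em 500-530) from Vif-expressing HeLa A3G-eYFP cells; more signal means A3G escaped Vif-mediated degradation. Cells plated overnight, compound pinned in, incubated overnight at 37 deg C.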
Numbers without * were called inactive; ? = inconclusive; & = joins results of further samples; [ ] = remark or other dose. Unless noted, calls follow the shape of the dose curve; as a rule, active = well fitted curve in the direction sought with a large enough effect; inconclusive = small, poorly fitted or top-dose-only effect, or another doubt; inactive = no such curve, though single readings can be large; an effect the other way counts as inactive or inconclusive. An excerpt, so the mix of outcomes need not match the whole.

SMILES	mIDH1 inhibitor	PI4K2A block	Vif-A3F inh	TrxR1 substrate	LDHA block	GRP78 ERSR act	Vif-A3G inh
Cn1c(CCNC(=O)c2ccccc2F)nnc1SCC(=O)Nc1nncs1	24.3%	5.2	-11.0%	9.4%[57.1 µM]	-5.4	0.3%	0.0%
COc1ccc(CCNC(=O)CSc2nc3[nH]ncc3c(=O)n2-c2ccc(C)c(Cl)c2)cc1OC	8.2%	-0.7	0.9%	-5.9%	2.9	-1.2%	-10.1%
C=CCn1c(CCNC(=O)c2ccccc2F)nnc1SCC(=O)Nc1ccc(OC)cc1	2.6%	0.7	-9.3%	10.7%[57.1 µM]	-9.4	5.4%	-1.9%
CN(C)C1(CNC(=O)COc2ccc(C(C)(C)C)cc2)CCCCC1	-7.7%	3.5	-10.3%	1.7%	5.7	-2.5%	-3.3%
Cc1cc2nc(CN(C)Cc3c(C(=O)N(C)C)nc4ccc(Cl)cn34)[nH]c2cc1C	-3.2%	-2.1	-2.7%	0.8%[57.1 µM]	-1.5	-2.4%	-1.5%
Cc1nn2c(-c3ccco3)ccnc2c1-c1ccc(Br)cc1	-4.2%	-2.8	-0.1%	4.4%[11.4 µM]	-2.3	4.4%	-1.0%
CCN(CC)C(=O)CSc1nc2cc(OC)c(OC)cc2c(=O)n1Cc1ccc(Cl)cc1	-7.2%	3.0	-1.3%	-9.8%	0.0	-1.0%	0.5%
C=CCn1c(SCC(=O)Nc2ccccc2F)nnc1C(C)NC(=O)c1ccccc1F (configuration not stated)	2.3%	2.0	-1.6%	10.2%	-8.8	-3.1%	-0.8%
C=CCN1CCN(C(=O)c2ccc3c(c2)OCO3)CC1	-0.4%	1.5	0.6%	2.9%	0.0	-2.9%	6.1%
CC(C)N(C(=O)c1ccc2nc(-c3ccccc3)c(-c3ccccc3)nc2c1)C(C)C	-4.7%	3.7	4.5%	17.6%[57.1 µM]	-3.5	0.6%	-4.8%
CCOc1cc(C)c(Cl)cc1S(=O)(=O)NCc1ccc2c(c1)OCO2	1.0%	-1.0	2.5%	-7.8%	3.1	-2.1%	?
C=CCn1c(C)nnc1SCC(=O)Nc1ccccc1C(=O)NC1CC1	7.4%	-2.0	-3.7%	-0.9%	-2.7	-3.8%	0.4%
CCOC(=O)C1CCN(C(=O)c2ccc3c(c2)NC(=O)/C(=C/c2ccccc2)S3)CC1	0.0%	-1.1	-6.2%	-1.3%	-6.3	5.7%	0.1%
Cc1cc(C)c(C(=O)N2CCCC(CNC(=O)C3(c4ccc(Cl)cc4)CC3)C2)c(=O)[nH]1 (configuration not stated)	-2.8%	8.6	4.3%	5.8%	-5.4	-2.2%	-0.8%
O=S(=O)(NCc1ccc2c(c1)OCO2)c1ccccc1F	3.3%	7.3	8.6%	-1.1%	-0.4	-0.4%	-3.8%
O=C(C1CCCN(CCCc2ccccc2)C1)N1CCCCC1 (configuration not stated)	0.9%	5.7	-11.5%	9.7%	-12.2	-2.5%	2.2%
CC(=O)N/C(=C\c1ccccc1)C(=O)OC(C)C(=O)N(C)c1ccccc1 (configuration not stated)	-4.3%	-1.4	?	-2.7%[57.1 µM]	-5.9	0.2%	-0.9%
COC(=O)[C@H](CC(C)C)NS(=O)(=O)N(Cc1ccccc1)[C@@H](CC(C)C)C(=O)OC	11.5%	3.9	6.0%	-6.3%&-13.9%	3.7	-0.6%&-0.1%	-1.3%&-5.6%
C=CCn1c(=S)[nH]c2scc(-c3ccco3)c2c1=O	4.3%	-26.7	4.7%	3.6%	-1.4	0.2%	5.1%
CC(=O)O[C@H]1c2ccccc2-c2ccccc2[C@@H]1OC(C)=O	-5.7%	1.0	-8.5%	-8.0%	-1.2	-3.0%	-0.4%
Cc1sc2ncn(CC(=O)NCCCC(=O)N3CCN(c4ncccn4)CC3)c(=O)c2c1C	4.2%	-8.9	-1.3%	3.6%	-5.9	-7.4%	4.1%
Cc1nn2c(-c3ccco3)ccnc2c1-c1ccc(F)cc1	18.8%	-4.6	-17.6%	4.4%	-9.0	-0.8%	-2.1%
Cc1ccc(/C=C2/Sc3ccc(C(=O)N4CCN(C)CC4)cc3NC2=O)cc1	-4.6%	-2.7	-11.7%	2.3%	-18.2	0.4%	-0.8%
CCOC(=O)[C@@H](C)NS(=O)(=O)N(Cc1ccccc1)[C@H](C(=O)OC)C(C)C	-4.9%	-0.4	-2.6%	-1.1%[57.1 µM]	1.5	-2.1%&0.3%	0.6%&1.5%
CCC(NS(=O)(=O)c1ccc2c(c1)NC(=O)C(C)C(=O)N2)c1cccs1 (configuration not stated)	9.2%	-8.8	2.9%	16.1%[57.1 µM]	0.9	-4.0%	0.5%
CN1CCN(C(=O)c2ccc3c(c2)NC(=O)/C(=C/c2ccccc2)S3)CC1	0.0%	4.4	2.8%	-6.3%	-1.3	-4.2%	-18.3%
CCOC(=O)c1c(-c2ccccc2)nnn1-c1nc(OC)nc(N2CCOCC2)n1	7.9%	0.8	-5.7%	-6.9%	-3.0	-0.1%	-0.2%
Cc1cc2c(cc1S(=O)(=O)N(CCO)Cc1ccccc1)OCC(=O)N2	4.9%	-0.6	3.7%	-5.2%[57.1 µM]	-3.4	-3.5%	8.6%
CCC/C(O)=C1\C(=O)CC(C)(C)CC1=Nc1cccc([N+](=O)[O-])c1	19.3%	-2.5	-0.7%	0.7%	-1.4	-3.0%	-1.2%
Cc1sc2ncn(CC(=O)NCCCC(=O)N3CCN(c4ccccc4)CC3)c(=O)c2c1C	-4.7%	-0.4	4.3%	5.0%[57.1 µM]	-5.3	-4.1%	0.4%
O=S(=O)(Nc1ccc(-c2nc3cccnc3s2)cc1)c1cccs1	-4.1%	0.0	-2.1%	82.8%[activator][57.1 µM]	-15.9	-1.1%	-11.1%
C=CCn1c(SCC(=O)Nc2cccnc2Cl)nnc1-c1ccccc1F	7.7%	3.1	-1.2%	-0.5%	-11.8	-2.8%	1.2%
COc1ccc(/C=C/C(=O)NC(=S)N2CCN(c3ccccn3)CC2)cc1	6.6%	3.8	3.7%	-4.2%	-9.6	6.2%	1.9%
Cc1nnc(NC(=O)CSc2nnc(CCNC(=O)c3ccccc3F)n2C)s1	-15.2%	-6.4	-0.7%	-10.2%	-3.0	-4.8%	4.2%
CN(C)CCN(C(=O)C1CCCCC1)c1nc2cc3c(cc2s1)OCO3	0.9%	-5.6	-8.2%	4.8%	3.3	2.1%	3.4%
C=CCn1c(Cc2csc(N)n2)nnc1SCC(=O)Nc1ccccc1C(F)(F)F	7.1%	-12.7	-4.6%	7.5%	-7.3	-4.9%	0.0%
NC(=O)c1ccc(S(=O)(=O)N2CCSCC2)cc1	-6.5%	8.8	0.4%	7.7%	-0.3	-3.4%	-0.9%
CCOC(=O)C1=NN(c2ccc(OC)cc2)C2C(=O)N(c3ccccc3OC)C(=O)C12 (configuration not stated)	15.9%	-2.9	11.2%	3.4%[57.1 µM]	-0.1	-3.7%	2.9%
CC(C)Oc1cccc(C(=O)Nc2ccc(-c3nc4cc(Cl)cc(Cl)c4o3)cc2)c1	-13.2%	0.9	1.4%	29.2%	-15.2	-1.7%	-2.8%
C/C(=N\NC(=O)c1ccc(NS(=O)(=O)c2cccs2)cc1)c1ccc(C(C)(C)C)cc1	-13.8%	-0.8	-6.7%	-7.7%	-6.2	4.6%	-3.8%

Arranged by SMILES length (ascending): part of the list above
SMILES	mIDH1 inhibitor	PI4K2A block	Vif-A3F inh	TrxR1 substrate	LDHA block	GRP78 ERSR act	Vif-A3G inh
NC(=O)c1ccc(S(=O)(=O)N2CCSCC2)cc1	-6.5%	8.8	0.4%	7.7%	-0.3	-3.4%	-0.9%
C=CCn1c(SCC(=O)Nc2cccnc2Cl)nnc1-c1ccccc1F	7.7%	3.1	-1.2%	-0.5%	-11.8	-2.8%	1.2%
CN(C)CCN(C(=O)C1CCCCC1)c1nc2cc3c(cc2s1)OCO3	0.9%	-5.6	-8.2%	4.8%	3.3	2.1%	3.4%
Cc1cc2c(cc1S(=O)(=O)N(CCO)Cc1ccccc1)OCC(=O)N2	4.9%	-0.6	3.7%	-5.2%[57.1 µM]	-3.4	-3.5%	8.6%
COc1ccc(/C=C/C(=O)NC(=S)N2CCN(c3ccccn3)CC2)cc1	6.6%	3.8	3.7%	-4.2%	-9.6	6.2%	1.9%
C=CCn1c(Cc2csc(N)n2)nnc1SCC(=O)Nc1ccccc1C(F)(F)F	7.1%	-12.7	-4.6%	7.5%	-7.3	-4.9%	0.0%
CCC/C(O)=C1\C(=O)CC(C)(C)CC1=Nc1cccc([N+](=O)[O-])c1	19.3%	-2.5	-0.7%	0.7%	-1.4	-3.0%	-1.2%
CC(C)Oc1cccc(C(=O)Nc2ccc(-c3nc4cc(Cl)cc(Cl)c4o3)cc2)c1	-13.2%	0.9	1.4%	29.2%	-15.2	-1.7%	-2.8%
CCOC(=O)C1=NN(c2ccc(OC)cc2)C2C(=O)N(c3ccccc3OC)C(=O)C12 (configuration not stated)	15.9%	-2.9	11.2%	3.4%[57.1 µM]	-0.1	-3.7%	2.9%
C/C(=N\NC(=O)c1ccc(NS(=O)(=O)c2cccs2)cc1)c1ccc(C(C)(C)C)cc1	-13.8%	-0.8	-6.7%	-7.7%	-6.2	4.6%	-3.8%

Next part
SMILES	mIDH1 inhibitor	PI4K2A block	Vif-A3F inh	TrxR1 substrate	LDHA block	GRP78 ERSR act	Vif-A3G inh
COC(=O)C1=NN(c2ccccc2OC)C2C(=O)N(c3ccccc3OC)C(=O)C12 (configuration not stated)	2.7%	-0.9	-0.1%	-16.3%	-0.3	-0.5%	-0.1%
Cc1ccc(/C=C2/Sc3ccc(C(=O)N4CCN(c5ccccn5)CC4)cc3NC2=O)cc1	7.2%	2.0	1.3%	-0.8%	0.6	-4.2%	-0.9%
COCCOc1cc(N)c(Cl)cc1Cl	18.1%	0.2	-0.3%	-2.9%	-9.0	7.0%	-1.0%
COc1cccc2cc(C(=O)CS(=O)(=O)c3ccc(C)cc3)c(=O)oc12	6.9%	-24.0	-14.4%	-5.2%	3.3	10.2%	-0.1%

Bioassay records deposited in PubChem BioAssay by National Center for Advancing Translational Sciences (NCATS).
